VDR inh – blocks the human vitamin D receptor | 400,000 tested, 0.93% active | Potency, µM, inactives show max response, negative = inhibition, hits mostly inhibitors | AID 504847 | P11473 | VDR-SRC2-3 peptide fluorescence polarization, 2 h; active = well fitted inhibition curve with a large enough effect; inconclusive = small, poorly fitted or top-dose-only effect, or another doubt; inactive = no such curve, though single readings can be large or run the other way; also: series mostly up to about 120 µM
Target sequence (P11473 whole entry, looked up): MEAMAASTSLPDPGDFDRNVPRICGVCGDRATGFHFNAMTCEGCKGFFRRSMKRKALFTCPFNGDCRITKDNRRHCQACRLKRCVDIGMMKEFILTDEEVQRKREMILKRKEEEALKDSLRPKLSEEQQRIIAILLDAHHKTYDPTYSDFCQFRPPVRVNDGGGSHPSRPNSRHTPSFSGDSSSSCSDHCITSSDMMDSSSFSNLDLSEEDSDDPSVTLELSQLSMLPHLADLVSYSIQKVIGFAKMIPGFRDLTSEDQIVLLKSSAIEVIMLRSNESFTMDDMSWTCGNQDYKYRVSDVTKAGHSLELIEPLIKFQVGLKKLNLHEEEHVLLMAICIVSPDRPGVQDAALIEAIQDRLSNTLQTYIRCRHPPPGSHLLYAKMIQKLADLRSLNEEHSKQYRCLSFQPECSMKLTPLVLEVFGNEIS
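Fluorescence polarization assay of small-molecule disruption of VDR binding to coregulator peptide SRC2-3. Compounds and controls pin-transferred, then read after 2 h incubation at ambient room temperature.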
* marks the source's active call; other numbers are inactive results; ? = inconclusive; & = joins results of further samples. % is scaled to controls: 0 for no effect and ±100 for the full control effect; potency is read from the fitted curve at half-maximal effect. The list is partial (hit frequency here may not be typical).

cpd | mol | VDR inh
1 | Cc1ccc(S(=O)(=O)CCc2nc3ccccc3s2)cc1C | -4.9%
2 | Nc1nn(S(=O)(=O)c2ccccc2)cc1-c1cccc([N+](=O)[O-])c1 | 17.8%
3 | CCC(=O)N1CCc2cc(Br)cc(S(=O)(=O)NCCCN(C)Cc3ccccc3)c21 | -3.2%
4 | Cc1nc(N)c(C#N)c(-c2cccnc2)c1-c1ccccc1 | 9.7%
5 | CCN1C[C@@H]2[C@@H]3C(=O)N(Cc4ccccc4)C(=O)[C@@H]3[C@](C)(C1=O)N2C(=O)c1ccccc1 | -14.9%
6 | CCOC(=O)Cc1csc(NC(=O)CSc2nnnn2-c2ccc(F)cc2)n1 | 5.8%
7 | O=C(CNC(=O)C1CCCCC1)OC(C(=O)c1ccccc1)c1ccccc1 (stereo not drawn) | -8.6%
8 | O=[N+]([O-])c1ccc(C=NNc2ccc(S(=O)(=O)O)cc2)cc1 | -6.5%
9 | Cc1ccccc1OCC(=O)Nc1cccc(N(C)S(C)(=O)=O)c1 | 7.1%
10 | Brc1cc2c(cc1CN1CCc3ccccc3C1)OCO2 | -18.3%
11 | Cc1ccc(/C=N/NC(=O)Cn2cnc3ccccc32)o1 | 10.9%
12 | COC(=O)c1scc(C)c1NC(=O)c1cccc(C#N)c1 | -1.3%
13 | Cc1ccc(C(=O)N2CCc3ccccc32)cc1NC(=O)c1ccco1 | -3.7%
14 | COc1ccc(C(=O)N(Cc2ccco2)Cc2cc3cc(C)ccc3[nH]c2=O)cc1OC | -0.9%
15 | CCn1cc(C(=O)N2CCN(c3ccccn3)CC2)c2cc(OC)c(OC)cc2c1=O | 8.8%
16 | O=C(O)CS(=O)(=O)CC(=O)O | 8.9%
17 | CCc1ccc(OCC(=O)NC(NC(=S)Nc2ccc(Cl)cc2)C(Cl)(Cl)Cl)cc1 (stereo not drawn) | -4.0%
18 | CCOc1ccc(C(c2c(C)n(C)n(-c3ccccc3)c2=O)c2c(C)n(C)n(-c3ccccc3)c2=O)c(O)c1 | 17.2%
19 | COC(=O)c1c(NC(=O)c2ccc(C)cc2)csc1C | 14.7%
20 | O=C(O)c1ccc(CNCc2cccc(OCc3ccc(F)cc3)c2)cc1 | 0.7%
21 | COc1cccc(NC(=O)CN(C)C(=O)c2ccc3ccccc3c2)c1 | 2.2%
22 | O=C(Oc1cncc(Cl)c1)c1ccco1 | 15.2%
23 | CCC(C)Sc1nnc(Cc2cc(=O)[nH]c(=O)[nH]2)n1-c1ccc(OC)cc1 (stereo not drawn) | -4.6%
24 | O=S(=O)(Nc1ccc(N2CCOCC2)cc1)c1ccc(F)cc1 | 6.8%
25 | O=C(COC(=O)CCc1nc2ccccc2s1)NC(=O)NCc1ccco1 | -4.2%
26 | Cc1ccc(/C=C(\C#N)c2nc3ccccc3c(=O)[nH]2)cc1 | 2.5%
27 | CC(C)(C)S(=O)(=O)c1ccccc1-c1noc(-c2ccccc2)c1C(N)=O | 15.5%
28 | CC(C)Sc1sc(C(=O)O)c(-c2ccc(Cl)cc2)c1C#N | -2.6%
29 | O=C(/C=C/c1ccccc1[N+](=O)[O-])OCC(=O)c1ccccc1 | -8.5%
30 | Cc1cc(C)n2nc(SCC(=O)Nc3ccc(O)cc3)nc2n1 | -22.8%&1.5%
31 | Cc1ccccc1Cn1ccc(NC(=O)c2onc(C)c2Cl)n1 | -23.8%
32 | O=C(/C=C/c1cn(CC(O)CN2CCCCCC2)c2ccccc12)c1ccccc1 (stereo not drawn) | 3.5%
33 | O=C(CSc1nnnn1Cc1ccccc1)NCCc1ccccc1 | -7.0%
34 | O=C(CNC(=O)c1nc[nH]c1C(=O)NCC(=O)OCc1ccccc1)OCc1ccccc1 | -8.8%
35 | COc1ccc([N+](=O)[O-])cc1NC(=O)/C=C/C(=O)O | 10.8%
36 | CCOc1ccc(N(CC)C(=O)Cc2c(C(=O)O)n(C)c3ccccc23)cc1 | -8.3%
37 | CC(=O)c1cc2c(cc1NC(=O)c1cnn(-c3ccc(C)cc3)c1-n1cccc1)OCO2 | -0.9%
38 | CC/C(CC(C)(C)c1ccccc1)=N\O | 1.1%
39 | O=C(c1cnccn1)N1CCC2(CCCN(c3ccccc3)C2)CC1 | -19.4%
40 | O=C(NCC1CCN(Cc2ccc(F)cc2)CC1)c1cc2ccc3cccnc3c2[nH]1 | -0.2%
41 | CN(CC(=O)Nn1cnnc1)S(=O)(=O)c1ccc(Br)cc1 | 10.6%
42 | COc1ccc(OC)c(CN2C(=O)c3ccccc3C2C(=O)NCc2cccnc2)c1 (stereo not drawn) | 6.2%
43 | C[C@H](NS(=O)(=O)c1ccc2c(c1)OCCCO2)C(=O)N1CCN(Cc2ccccc2)CC1 | 2.0%
44 | CN(C(=O)COC(=O)/C=C/c1ccc2ccccc2n1)c1c(N)n(Cc2ccccc2)c(=O)[nH]c1=O | ?
45 | CCOC(=O)C(NC(=O)CC)(Nc1cc(C)on1)C(F)(F)F (stereo not drawn) | 10.4%
46 | CC(=O)OCC1OC(Sc2cccc3cccnc23)C(OC(C)=O)C(OC(C)=O)C1OC(C)=O (stereo not drawn) | 2.1%
47 | CCc1nnc(NC(=O)C2CCCCC2)s1 | 9.4%
48 | CC(C)(C)C(=O)NC(c1ccccc1)c1c(O)ccc2ccccc12 (stereo not drawn) | -1.1%
49 | C=C(C)[C@@H]1CC=C(CN2CCC(N3CCC(C(=O)N4CCCC4)CC3)CC2)CC1 | 10.7%
50 | CCOC(=O)CCc1c(C)nc2cc(-c3cc(OC)cc(OC)c3)[nH]n2c1=O | -23.5%
51 | CC1CCN(c2ccc3c(c2)S(=O)(=O)c2cccc(C(=O)O)c2C3=O)CC1 | 10.9%
52 | COc1ccccc1N1CCN(S(=O)(=O)c2cc(C(=O)Nc3ccc(Oc4ccccc4)cc3)ccc2F)CC1 | 26.3%
53 | S=c1[nH]nc(-c2ccc(Br)o2)n1Cc1ccccc1 | -16.2%
54 | NC(=O)C1(N2CCCCC2)CCN(C(=O)NC2CCCCC2)CC1 | 0.3%
55 | Cc1ccc(C(=O)C2COC(=O)C2)cc1 (stereo not drawn) | 6.4%
56 | CCOC(=O)NC(NCC(O)c1ccccc1)(C(F)(F)F)C(F)(F)F (stereo not drawn) | -4.9%
57 | S=C(NCC1CCCO1)N1CCN(c2nc(-c3ccc(Cl)cc3)cs2)CC1 (stereo not drawn) | 8.1%
58 | CCN1CCN(CCNC(=O)c2ccc3nc(-c4cccc(C)c4)c(-c4cccc(C)c4)nc3c2)CC1 | 4.3%
59 | Cn1ncc2c(=O)[nH]nnc21 | -22.4%
60 | O=C(NC1CC1)c1ccc(-c2ccccc2)cc1 | -10.2%

New compounds follow.
cpd | mol | VDR inh
61 | CCCN1CCC(=O)N([C@H](COc2ccccc2)Cc2ccccc2)CC1 | -4.4%
62 | Nc1cc(-c2ccccc2)ccc1O | -8.1%
63 | CCc1sc(C(=O)NCc2ccco2)cc1C | -21.6%
64 | Cc1cc(C(=O)N2CCCC(N3CCN(c4cccc(C(F)(F)F)c4)CC3)C2)c(C)o1 (stereo not drawn) | -1.3%
65 | N#CCNc1ccc([N+](=O)[O-])cc1C#N | -21.3%
66 | C=CCN1CC(=O)N2C(c3ccccc3)c3[nH]c4ccccc4c3C[C@H]2C1=O (stereo partly drawn) | 4.3%
67 | CCOCCCn1c(SCC(=O)NCc2ccco2)nc2c(sc3ccccc32)c1=O | -5.0%
68 | Cc1nnc(SCC(=O)Nc2sccc2C#N)n1Cc1ccccc1 | -7.7%
69 | COC(=O)C(Cc1ccc(O)cc1)NC(=O)C12CC3CC(CC(C3)C1)C2 (stereo not drawn) | -7.3%
70 | CN(C)S(=O)(=O)N1CCN(C(=O)c2cccs2)CC1 | 2.2%
71 | O=c1c(/C=C(\O)c2ccc(F)cc2)nc2ccccc2n1-c1ccccc1 | -21.3%
72 | O=C(NC1CCCc2ccccc21)c1cncc(Br)c1 (stereo not drawn) | 0.2%
73 | COc1ccc(OCc2cc(C(=O)NCC(C)Oc3cccnc3)no2)c(Cl)c1 (stereo not drawn) | -1.9%
74 | Cn1c(=O)[nH]c(=O)c2c1nc(NCCCn1ccnc1)n2Cc1cccc(Br)c1 | -3.2%
75 | COc1cc(/C=N/Nc2nc(=O)[nH]nc2C)cc(OC)c1O | 12.4%
76 | N#Cc1cccc(NC(=O)CCNS(=O)(=O)c2ccc3c(c2)CCN3C(=O)C2CC2)c1 | 18.3%
77 | COc1cc(C2c3cc4c(cc3OC(NNC(N)=S)C2C)OCO4)cc(OC)c1OC (stereo not drawn) | -9.4%
78 | Fc1cccc(CSc2nnc3c(n2)[nH]c2ccccc23)c1 | -1.3%
79 | CCOc1ccc(NC(=O)CN2C(=O)COc3ccc(S(=O)(=O)N4CCCCC4)cc32)cc1 | -9.6%
80 | Cc1cc(C)cc(N=Cc2[nH]c3ccc(Br)c(Cl)c3c2O)c1 | -22.2%
81 | O=C(Nc1ccccc1)Nc1ccc(NC(=O)c2ccccc2O)cc1 | 2.7%
82 | COC(=O)c1cccc(N(C(=O)c2ccco2)C(C(=O)NC2CCCC2)c2ccco2)c1 (stereo not drawn) | -8.9%
83 | O=C(c1c[nH]c(C(=O)C(Cl)(Cl)Cl)c1)c1ccccc1Br | 2.3%
84 | Cc1ccc(S(=O)(=O)Nc2nc3ccccc3nc2N2CCOCC2)cc1 | 14.1%
85 | CCOc1ccc(/C=C2/SC(=O)NC2=S)cc1 | -12.8%
86 | CC(=O)NCc1ccc(S(=O)(=O)N/N=C/c2ccc(N(C)C)cc2)cc1 | -9.3%
87 | CCCCC(=O)Nc1cccc(NC(=O)c2ccccc2Br)c1 | -8.2%
88 | CC(=O)c1cccc(NC(=O)/C(=C\c2cccnc2)NC(=O)c2ccccc2)c1 | -0.3%
89 | Cc1ccc(NC(=O)[C@H](C)NC(=O)C2CCN(C(=O)[C@H](CC(C)C)NC(=O)OC(C)(C)C)CC2)cc1 | 9.5%
90 | CN(C)/C=N/c1nc2nccc(-c3ccc(F)cc3)n2n1 | -5.9%

Sorted by formula weight (smallest number first): 5 of the compounds above
cpd | mol | VDR inh
60 | O=C(NC1CC1)c1ccc(-c2ccccc2)cc1 | -10.2%
71 | O=c1c(/C=C(\O)c2ccc(F)cc2)nc2ccccc2n1-c1ccccc1 | -21.3%
83 | O=C(c1c[nH]c(C(=O)C(Cl)(Cl)Cl)c1)c1ccccc1Br | 2.3%
15 | CCn1cc(C(=O)N2CCN(c3ccccn3)CC2)c2cc(OC)c(OC)cc2c1=O | 8.8%
3 | CCC(=O)N1CCc2cc(Br)cc(S(=O)(=O)NCCCN(C)Cc3ccccc3)c21 | -3.2%

(more compounds)
cpd | mol | VDR inh
91 | CCc1ccc(NC(=O)C(=O)NCC(c2cccnc2)N2CCOCC2)cc1 (stereo not drawn) | -3.4%
92 | O=C(Nc1cccc(NC(=O)c2ncn[nH]2)c1)c1cccc(Cl)c1 | -15.1%
93 | CCCn1c(SCC(=O)NCCc2ccccc2)nnc1-c1ccco1 | -16.3%
94 | Cc1nc2sc(C(c3ccccc3)N3CCC(O)CC3)c(O)n2n1 (stereo not drawn) | 23.7%
95 | CCn1cnc2cc(NCc3ccncc3)ccc21 | -9.6%
96 | NC(=O)CSc1nnc(Cn2c(=O)sc3ccccc32)n1CCc1ccccc1 | -27.6%
97 | O=C(C(=O)c1ccc(O)cc1)c1ccccc1 | -21.2%
98 | CCC(C)NC(=O)Cn1c(=O)n(CCCCCC(=O)NCc2ccccc2Cl)c(=O)c2sccc21 (stereo not drawn) | 16.2%
99 | O=C(CC1N=C2c3ccccc3N=C(SCc3ccccc3Cl)N2C1=O)NCc1ccco1 (stereo not drawn) | 10.8%
100 | NC(=O)COc1ccccc1C1=NO[C@@](CC(=O)O)(C(=O)Nc2ccc3c(c2)OCCO3)C1 | 16.9%
101 | O=C(O)CCC(=O)OCC1CCCCC1 | -5.4%
102 | COC(=O)c1c(SC)nc2ccccc2c1OCc1ccccc1C | 7.1%
103 | CC(=O)NC1C(O)O[C@H](C(=O)O)[C@@H](O)[C@@H]1O (stereo partly drawn) | 0.9%
104 | Cc1ccc(C(=O)CSc2nnc3n2CCCCC3)s1 | 9.7%
105 | O=C(NNC(=O)c1ccc(NC(=O)C2CC2)cc1)c1ccc(F)cc1 | 11.6%
106 | Fc1ccc2c(c1)C(c1ccncc1)=NNC(c1ccccc1)=N2 | -7.2%
107 | Cc1ccc(C)c(NCC(=O)NNC(=S)Nc2ccccc2)c1 | -8.4%
108 | CCCSc1ccc(-c2nn(-c3ccccc3)cc2/C=C(/C#N)C(=O)N2CCOCC2)cc1 | 1.4%
109 | CC(=O)Nc1ncc2c(n1)CC(c1ccco1)CC2=O (stereo not drawn) | 1.7%
110 | Nc1c(C(=O)Nc2ccc(F)cc2)nnn1-c1cccc(C(F)(F)F)c1 | 13.4%
111 | NC(=O)C1CCN(c2nc(C3CC3)nc3c2nnn3Cc2ccccc2)CC1 | 1.1%
112 | CC(=O)c1ccc(NC(=O)CCSc2nc(-c3ccco3)cc(C(F)(F)F)n2)cc1 | -9.6%
113 | CC(C)CN(C(=O)COC(=O)Cc1cccc2ccccc12)c1c(N)n(Cc2ccccc2)c(=O)[nH]c1=O | -11.1%
114 | CCCCCCSc1nc(N)c2c3c(sc2n1)CCCC3C (stereo not drawn) | -8.9%
115 | CN(CC(=O)Nc1ccc(Cl)cc1)C(=O)c1sccc1-c1ccccc1 | 6.2%
116 | CC(C)CCNC(=O)Cn1cc(S(=O)(=O)Cc2ccc(F)cc2)c2ccccc21 | 7.8%
117 | O=C(NCc1cccs1)c1csc2ccccc12 | -2.3%
118 | COCCN(C(=O)CCC(=O)Nc1ccccn1)C(C(=O)NC(C)(C)C)c1ccc(OC)cc1 (stereo not drawn) | -7.9%
119 | O=C(Nc1ncccn1)C12CC3CC(CC(C3)C1)C2 | 15.9%
120 | COc1ccccc1-c1nc(SCC(=O)Nc2cc(C)on2)c2c(=O)n(C)c(=O)n(C)c2n1 | 13.3%

Assay outcomes deposited in PubChem by National Center for Advancing Translational Sciences (NCATS).
